NS1 inh: qHTS Assay for Inhibitors of Influenza NS1 Protein Function; S. cerevisiae slowed by influenza A NS1, growth recovery by OD600; Potency, µM (highest dose often 46.1 µM), inactives show top-dose activity, positive = more growth; 0.4% of 270,000 active; AID 2326, 2010; further: actives are rising curves; nearly all actives have a fitted effect of over 50% in size
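Recovery from NS1-induced slow growth read by OD600 in budding yeast switched to galactose assay medium (pH 6.0, -URA) at 1:100 dilution. Compound 23 nl per well; the matching strain lacking NS1 serves as control.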
SARS PLP yeast: qHTS of Yeast-based Assay for SARS-CoV PLP | S. cerevisiae expressing SARS-CoV PLpro, growth rescue; control for the full effect not named in the record | Potency, µM (doses to about 32.9 µM), for inactives: at the highest dose activity, positive = growth rescue | 0.19% of 330,000 active | AID 485353, 2010; further: 0% is about no effect; nearly all actives have a fitted effect of over 55% in size; growth read by luminescence after 48 h
StopGo reporter: High Throughput Screening for Foot and Mouth Disease Virus Antivirals; human cells with a luciferase reporter of 2A StopGo recoding; control for the full effect not named in the record; Potency, µM (doses to about 57.9 µM), for inactives: at the top dose signal change, negative = less light; 1.2% of 410,000 active; active = well fitted falling curve with a large enough effect; inconclusive = small, poorly fitted or top-dose-only effect; inactive = no such curve, though single readings can be large or run the other way; tested in HEK293T cells; further: on the % scale 0 is the no-effect control and ±100 the full control effect; nearly all actives have a fitted effect of over 45% in size; luciferase light after 4 h
Cruzain Triton: qHTS Assay for Promiscuous and Specific Inhibitors of Cruzain (with detergent); Potency, µM, without a hit: max response, negative = inhibition, usual class: inhibitors; purified cruzain, Z-FR-AMC fluorescence, 0.01% Triton; 0.43% of 200,000 active; AID 1478, 2009; active means well fitted curve in the direction sought with a large enough effect; inconclusive means small, poorly fitted or top-dose-only effect, or another doubt; inactive means no such curve, though single readings can be large; an effect the other way counts as inactive or inconclusive;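 further: plate controls were neutral wells for no effect and buffer without enzyme for full effect; nearly all actives have a fitted effect of over 40% in size; top concentration of the series not given in the record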
Target sequence (P25779 123-467 limits assumed): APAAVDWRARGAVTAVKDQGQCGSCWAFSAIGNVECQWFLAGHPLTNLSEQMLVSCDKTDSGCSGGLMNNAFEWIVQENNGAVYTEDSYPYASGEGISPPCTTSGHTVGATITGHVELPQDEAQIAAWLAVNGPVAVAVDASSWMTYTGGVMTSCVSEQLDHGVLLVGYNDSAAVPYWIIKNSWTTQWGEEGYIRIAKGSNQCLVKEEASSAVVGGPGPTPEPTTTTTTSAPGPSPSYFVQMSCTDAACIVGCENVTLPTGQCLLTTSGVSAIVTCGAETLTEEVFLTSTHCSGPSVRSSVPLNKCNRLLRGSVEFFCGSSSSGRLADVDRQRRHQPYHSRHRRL
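15 min RT preincubation of 1.5 nM cruzain with compound, then 2 uM Z-FR-AMC added; kinetic AMC fluorescence, 60 s delta. Triton X-100 0.01%, pH 5.5.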
RE007 growth inh: qHTS Assay for Inhibitors of the HIV-1 protein Vpr; S. pombe RE007 Vpr strain, BacTiter-Glo ATP luminescence, 24 h; control for the full effect not named in the record; Potency, µM (highest dose often 92.2 µM), inactives show at the highest dose activity change, negative = less growth; 0.21% of 360,000 active; AID 651644, 2012; active = well fitted falling curve with a large enough effect; inconclusive = small, poorly fitted or top-dose-only effect; inactive = no such curve, though single readings can be large or run the other way;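 further: on the % scale 0 is the no-effect control and ±100 the full control effect; nearly all actives have a fitted effect of over 50% in size; the assay follows cell death caused by Vpr and the record does not say whether a fall means rescue or toxicity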
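Fission yeast strain RE007, carrying one chromosomally integrated HIV-1 vpr copy, was seeded at OD 0.01 in PMG+AL medium with 23 nL pinned compound. After 24 h at 30 °C and 99% humidity, viability was read by BacTiter-Glo luminescence.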
Lassa entry inh: qHTS for Inhibitors of binding or entry into cells for Lassa Virus; Lassa virus pseudotype entry inhibition, cell reporter; control for the full effect not named in the record; Potency, µM (doses to about 37.9 µM), without a hit: at the top dose activity change, negative = inhibition, usual class: inhibitors; 1.2% of 300,000 active; AID 540256, 2011; active means well fitted inhibition curve with a large enough effect; inconclusive means small, poorly fitted or top-dose-only effect, or effect the other way; inactive means flat fitted curve, though single readings scatter; tested in HEK293 cells; further: on the % scale 0 is the no-effect control and ±100 the full control effect; nearly all actives have a fitted effect of over 50% in size; luciferase read-out
Cruzain inh noDet: qHTS Assay for Promiscuous and Specific Inhibitors of Cruzain (without detergent). purified cruzain, Z-FR-AMC fluorescence, no detergent. Cruzipain (Trypanosoma cruzi), P25779. 2.3% of 200,000 active. Potency, µM, for inactives: max response, negative = inhibition, hits mostly inhibitors; active means well fitted curve in the direction sought with a large enough effect; inconclusive means small, poorly fitted or top-dose-only effect, or another doubt; inactive means no such curve, though single readings can be large; an effect the other way counts as inactive or inconclusive;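 further: plate controls were enzyme without inhibitor for no effect and buffer without enzyme for full effect; nearly all actives have a fitted effect of over 40% in size; top concentration of the series not given in the record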
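Purified cruzain at 1.5 nM, pre-incubated 15 min with compound at room temperature in 100 mM sodium acetate pH 5.5, 5 mM DTT, 0.00005% Triton X-100. Reaction started with 2 uM Z-FR-AMC; AMC fluorescence increase over 60 s gives rate.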
MARV entry inh: qHTS for inhibitors of binding or entry into cells for Marburg Virus; Marburg virus pseudotyped entry inhibition, cell reporter; control for the full effect not named in the record; about a third of the inactives were read at about 46 µM; Potency, µM (series often up to 37.8 µM), without a hit: at the top dose activity change, negative = inhibition, usual class: inhibitors; 1.8% of 300,000 active; active = well fitted inhibition curve with a large enough effect; inconclusive = small, poorly fitted or top-dose-only effect, or effect the other way; inactive = flat fitted curve, though single readings scatter; tested in HEK293 cells; about a fifth of its hits are not listed in these tables; further: on the % scale 0 is the no-effect control and ±100 the full control effect; luciferase read-out
An asterisk follows results filed as active; ? = inconclusive; / = no result given; & = joins results of further samples; [ ] = dose if it differs, or a comment. Unless noted, the call rests on the fitted dose curve; in most records, active means well fitted rising curve with a large enough effect; inconclusive means small, poorly fitted or top-dose-only effect; inactive means no such curve, though single readings can be large or run the other way. Potency means the concentration at half of the fitted maximal effect.

SMILES | NS1 inh | SARS PLP yeast | StopGo reporter | Cruzain Triton | RE007 growth inh | Lassa entry inh | Cruzain inh noDet | MARV entry inh
CCOc1ccc(NC(=O)CN(C)C(=O)C2CCN(c3ncnc4sc(C)c(C)c34)CC2)cc1OCC | -26.7% | 8.1% | ? | / | 3.3% | -10.7% | / | ?
Cc1ccc(-n2c(C)n[nH]c2=S)cc1C | -4.9% | 10.2% | 0.0% | 3.8% | 4.4% | 2.3% | -13.3% | ?
CCc1cc[n+](-c2nc3ccccc3nc2[N-]S(=O)(=O)c2ccc(Br)s2)cc1 | 23.9% | 4.3% | 76.3%[activator] | -4.0% | 37.5% | -8.5% | ? | 26.1%
O=C(Nc1ccccc1)OCCOc1ccc(Cl)cc1Cl | / | / | -6.8% | / | 12.9% | ? | / | ?
O=C(CCN1C(=O)S/C(=C/c2ccc(Cl)cc2)C1=O)N1CCOCC1 | 9.0% | 4.1% | -14.6% | -3.2% | 0.5% | -1.1% | 4.2% | -0.5%
CC1CN(c2ccc(C(F)(F)F)cc2[N+](=O)[O-])CCN1S(C)(=O)=O (stereo not drawn) | -2.4% | 10.2% | ? | -3.1% | -2.8% | -2.7% | -12.1% | -19.0%
Cc1cc(C)n2nc(SCC(=O)N(Cc3ccccc3)C3CCS(=O)(=O)C3)nc2n1 (stereo not drawn) | / | 0.3% | -9.6% | / | -11.0% | -1.2% | / | ?
COc1ccc(NC(=O)Cc2nnc(SCC(=O)Nc3ccc(F)cc3)n2C)cc1 | 0.0% | -9.2% | 26.9% | / | 6.7% | -24.4% | / | -0.4%[46.1 µM]
COc1ccc(C2C3C(C)=NN=C3CC(C)(O)C2C(C)=O)cc1 (stereo not drawn) | 11.0% | 3.6% | -8.1% | -1.7% | -8.0% | 1.2% | 0.7% | ?
O=C(Nc1ccc(Cl)cc1C(=O)N1CCCC1)c1cccc([N+](=O)[O-])c1 | 2.8% | 0.5% | 21.6% | / | -2.7% | 1.7%[46.1 µM] | / | -10.4%[46.1 µM]
COc1ccc(C2C(C#N)=C(N)OC3=C2C(=O)CCC3)cc1Cn1cc([N+](=O)[O-])cn1 (stereo not drawn) | 0.4% | 12.3% | 4.2% | -3.4% | -9.8% | -26.0% | -7.4% | 3.3%[46.1 µM]
CN(CCC(=O)Nc1cc(S(=O)(=O)N(C)C)ccc1Cl)CC(=O)Nc1ccc(F)cc1 | -2.7% | 9.8% | -20.2% | / | -26.0% | -10.3% | / | -18.4%[46.1 µM]
Nc1ccccc1Nc1cccc(C(F)(F)F)c1 | / | -5.4% | -23.8% | / | 23.1% | 1.9% | / | ?
CC1CCCN(S(=O)(=O)c2ccc(S(=O)(=O)NC(C)c3cccs3)cc2)C1 (stereo not drawn) | 9.0% | 8.9% | / | -13.0% | -1.8% | -14.7% | -19.3% | ?
Cc1ccc(CN(Cc2ccco2)C(=O)c2oc3ccc(C)cc3c2C)cc1 | / | / | -13.9% | -7.3% | / | -16.5%[46.1 µM] | ? | -22.8%[46.1 µM]
CCOC(=O)c1c(C)c(C(=O)NCCN2CCOCC2)c(C)n1C | -4.3% | 5.3% | 17.7% | -2.2% | 18.9% | -3.8% | -12.2% | -2.5%
Cc1ccc(/C=N/n2c(-c3ccc(Cl)cc3)n[nH]c2=S)o1 | 7.1% | -1.1% | -3.8% | / | 21.2% | / | / | /
COC(=O)C1=C(C)Nc2c(c(=O)n(C)c(=O)n2C)C1c1ccc(Cl)cc1 (stereo not drawn) | 2.4% | 9.1% | -2.9% | -6.7% | / | 1.0% | -4.4% | ?
Cc1nc2nc[nH]n2c(=O)c1C/C=C/c1ccccc1 | 1.9% | 0.6% | 2.9% | / | 3.2% | 3.2%[46.1 µM] | / | 20.1%[46.1 µM]
O=C(Nc1ccc(Oc2cccnc2)cc1)c1ccccc1F | -12.3% | -5.8% | 41.5%[activator] | 4.6% | -15.0% | 24.5% | -6.7% | ?

Part of the list above, with tabs.
Molecule	NS1 inh	SARS PLP yeast	StopGo reporter	Cruzain Triton	RE007 growth inh	Lassa entry inh	Cruzain inh noDet	MARV entry inh
Cc1cc(C)n2nc(SCC(=O)N(Cc3ccccc3)C3CCS(=O)(=O)C3)nc2n1 (stereo not drawn)	/	0.3%	-9.6%	/	-11.0%	-1.2%	/	?
CCOc1ccc(NC(=O)CN(C)C(=O)C2CCN(c3ncnc4sc(C)c(C)c34)CC2)cc1OCC	-26.7%	8.1%	?	/	3.3%	-10.7%	/	?

The results go on.
SMILES | NS1 inh | SARS PLP yeast | StopGo reporter | Cruzain Triton | RE007 growth inh | Lassa entry inh | Cruzain inh noDet | MARV entry inh
Cc1ccc(N=Nc2c(N)[nH]n3c(=O)cc(-c4ccccc4)nc23)cc1 | 8.4% | -1.0% | -10.1% | -6.2% | 8.3% | 0.8% | -20.3% | ?
CC(C)CC(NC(=O)C(CC(C)C)NC(=O)C(Cc1ccc(OCc2ccccc2)cc1)NC(=O)OC(C)(C)C)C(N)=O (stereo not drawn) | 5.2% | 0.7% | -8.5% | / | -18.8% | -1.5%[46.1 µM] | / | 4.5%[46.1 µM]
COC(=O)c1ccc(COc2ncnc3c(Cl)cc(Cl)cc23)o1 | -15.5% | -7.7% | -15.3% | 2.7% | 20.0% | -6.1% | 5.2% | -8.1%
COC(=O)CC(c1ccc(C(C)C)cc1)n1cccc1 (stereo not drawn) | / | 1.8% | -0.8% | / | 2.2% | 1.6%[46.1 µM] | / | ?
O=C(NCCc1ccccn1)c1nc(Cn2cc(Br)cn2)no1 | 3.1% | 1.1% | -9.6% | / | 3.3% | / | / | 9.7%[46.1 µM]
Cc1ccc(NC(=O)CSc2nnc(N)s2)c(C)c1 | / | / | -9.1% | -2.7% | / | 2.9%[46.1 µM] | 1.9% | 25.5%[46.1 µM]
COCCNS(=O)(=O)c1ccc(F)c(OC)c1 | -4.0% | -1.8% | 23.6% | -2.1% | -5.9% | 2.5% | -6.5% | 8.6%
O=C(CC1SC(=O)N(c2ccccc2)C1=O)Nc1ccc(Br)cc1 (stereo not drawn) | 5.8% | -4.6% | -11.0% | / | -18.5% | 3.1% | / | 0.8%
Cc1cc(C)n(C(CC(=O)N2CCc3ccccc3C2)C(=O)O)n1 (stereo not drawn) | 7.7% | -2.7% | 23.7% | 4.7% | 21.0% | 3.5% | 1.0% | 5.3%
COc1ccc(C(=O)NC(=S)Nc2ccc3oc(=O)ccc3c2)cc1OC | 12.3% | -0.3% | -1.4% | -0.1% | -25.6% | 3.2% | -12.3% | -3.6%
COc1ccccc1C(=O)N/C(=C\c1cn(C)c2ccccc12)C(=O)NCCCN1CCOCC1 | -5.4% | 1.6% | -8.6% | / | -2.0% | / | / | /
COc1ccc(C2C=C(c3ccc(Br)cc3)Nc3nnnn32)c(OC)c1 (stereo not drawn) | / | / | -5.5% | -5.8% | / | -8.9%[46.1 µM] | -8.8% | /
COC(=O)C1(C(=O)OC)NOC2C(=O)N(c3ccc(Cl)cc3Cl)C(=O)C21 (stereo not drawn) | 22.7% | 0.5% | 32.8%[activator] | -4.1% | 16.1% | 10.0% | 7.0% | 3.3%
CCCCS(=O)(=O)NC1=NCN(Cc2ccco2)CN1 | -7.2% | 0.7% | -4.0% | 7.4% | 1.0% | -21.6% | -5.3% | -13.0%
CCOC(=O)CN1C(=O)N(CC)C(C)=C(C(=O)OC)[C@@H]1c1ccccc1 | 1.0% | 0.9% | -15.4% | / | -0.1% | / | / | ?
CN(Cc1ccccc1)C(=O)C1CCCN(Cc2ccc(Cl)cc2)C1 (stereo not drawn) | -1.4% | -5.8% | ? | 4.2% | 10.8% | ? | -9.4% | ?
CCN(CC)CCOC(=O)c1ccc(NC(=O)CCNC(=O)Cn2ccc3ccccc3c2=O)cc1 | -0.4% | -2.7% | -16.4% | 1.3% | -0.4% | -19.6% | -1.0% | 2.5%&11.3%
O=C(Cn1nc([N+](=O)[O-])nc1Br)NC1CCCCC1 | -6.7% | -0.6% | -3.5% | / | 17.9% | 19.0% | / | ?
Cc1cccc(NC(=O)c2cn(-c3ccccc3)nc2-c2ccccc2)c1 | 3.3% | 15.5% | -14.5% | -3.6% | -15.1% | -2.3% | -3.1% | ?
CN(C)CCN(C(=O)c1ccc(C(=O)c2ccccc2)cc1)c1nc2cc3c(cc2s1)OCCO3 | -28.2% | 0.6% | -6.0% | / | -11.3% | / | / | /
COc1ccc(C(=O)C2CC2c2ccc3c(c2)OCO3)cc1 (stereo not drawn) | / | -5.1% | 9.3% | / | -12.8% | ? | / | ?
CC1Cc2ccccc2N1S(=O)(=O)c1cccc(C(=O)N2CCN(c3ncccn3)CC2)c1 (stereo not drawn) | / | -0.9% | ? | / | 10.6% | ? | / | ?
CCC(C(=O)OCC(=O)Nc1cc(OC)ccc1OC)c1ccccc1 (stereo not drawn) | 6.3% | -5.2% | 5.2% | / | 14.6% | 12.6%[46.1 µM] | / | 3.6%[46.1 µM]
Cc1c(C#N)c(O)n(CCO)c(=O)c1N=Nc1ccc(S(N)(=O)=O)cc1 | / | 3.3% | 11.3% | / | -5.7% | -5.9%[46.1 µM] | / | -3.4%[46.1 µM]
O=c1[nH]c2c(c(=O)[nH]1)CCCCCC2 | / | / | -16.2% | / | -9.4% | 10.3%[46.1 µM] | / | -3.3%
COc1cccc(C(=O)CC(C(=O)O)c2ccc(Cl)cc2)c1 (stereo not drawn) | -4.9% | -3.4% | -17.8% | / | -1.8% | / | / | /
O=C(CN1C(=O)COc2ccccc2C1=O)c1ccc2c(c1)OCCO2 | 1.5% | 1.9% | 51.8%[activator] | / | -0.8% | / | / | /
Cc1[nH]nc2c1C(=O)CC(C)(C)C2 | 1.8% | 2.3% | -24.1% | -0.2% | -1.1% | ? | 12.7% | 7.1%
